Source: PubChem
RE007 growth inh: less growth of the S. pombe RE007 Vpr strain; hit rate 0.21% among 360,000; Potency, µM (titrated, usually from 92.2 µM), without a hit: top-dose activity change, negative = less growth; AID 651644; S. pombe RE007 Vpr strain, BacTiter-Glo ATP luminescence, 24 h; control for the full effect not named in the record; active = well fitted falling curve with a large enough effect; inconclusive = small, poorly fitted or top-dose-only effect; inactive = no such curve, though single readings can be large or run the other way;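 note: % is set by controls: 0 for no effect and ±100 for the full control effect; nearly all actives have a fitted effect of over 50% in size; the assay follows cell death caused by Vpr and the record does not say whether a fall means rescue or toxicity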
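Fission yeast strain RE007, carrying one chromosomally integrated HIV-1 vpr copy, was seeded at OD 0.01 in PMG+AL medium with 23 nL pinned compound. After 24 h at 30 °C and 99% humidity, viability was read by BacTiter-Glo luminescence.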
SARS PLP yeast: SARS-CoV PLP inhibition in yeast; Potency, µM (titrated, usually from 32.9 µM), inactives show at the top dose activity, positive = growth rescue; hit rate 0.19% among 330,000; S. cerevisiae expressing SARS-CoV PLpro, growth rescue; control for the full effect not named in the record; note: 0% is about no effect; nearly all actives have a fitted effect of over 55% in size; growth read by luminescence after 48 h
Cruzain noTriton: blocks cruzain activity in detergent-free assay. AID 1476. P25779. Potency, µM, without a hit: max response, negative = inhibition, hits mostly inhibitors. purified cruzain, Z-FR-AMC fluorescence, no detergent. hit rate 2.3% among 200,000; active = well fitted curve in the direction sought with a large enough effect; inconclusive = small, poorly fitted or top-dose-only effect, or another doubt; inactive = no such curve, though single readings can be large; an effect the other way counts as inactive or inconclusive;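 note: plate controls were enzyme without inhibitor for no effect and buffer without enzyme for full effect; nearly all actives have a fitted effect of over 40% in size; top concentration of the series not given in the record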
Target sequence (P25779 123-467 limits assumed): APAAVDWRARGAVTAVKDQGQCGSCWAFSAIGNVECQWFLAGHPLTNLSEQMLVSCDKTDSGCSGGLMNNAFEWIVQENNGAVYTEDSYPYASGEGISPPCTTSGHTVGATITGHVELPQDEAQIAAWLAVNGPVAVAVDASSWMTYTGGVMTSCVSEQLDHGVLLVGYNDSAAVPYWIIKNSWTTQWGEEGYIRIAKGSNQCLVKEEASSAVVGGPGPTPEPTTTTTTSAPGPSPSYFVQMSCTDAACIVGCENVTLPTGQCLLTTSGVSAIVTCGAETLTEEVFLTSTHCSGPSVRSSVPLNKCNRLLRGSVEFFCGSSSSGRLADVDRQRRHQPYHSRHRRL
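Detergent-free condition (0.00005% Triton X-100) in acetate buffer pH 5.5 with DTT. 1.5 nM enzyme and compound were pre-mixed 15 min, then 2 uM Z-FR-AMC substrate added; reaction progress from fluorescence change between first and third reads (60 s).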
MARV entry inh: inhibitors of Marburg virus binding or cell entry; Marburg virus pseudotyped entry inhibition, cell reporter; control for the full effect not named in the record; about a third of the inactives were read at about 46 µM; Potency, µM (series often up to 37.8 µM), inactives show at the highest dose activity change, negative = inhibition, usual class: inhibitors; hit rate 1.8% among 300,000; AID 540276; active = well fitted inhibition curve with a large enough effect; inconclusive = small, poorly fitted or top-dose-only effect, or effect the other way; inactive = flat fitted curve, though single readings scatter; tested in HEK293 cells; about a fifth of its hits are not listed in these tables; note: % is set by controls: 0 for no effect and ±100 for the full control effect; luciferase read-out
Lassa entry inh: Lassa virus entry inhibition; Potency, µM (series often up to 37.9 µM), for inactives: top-dose activity change, negative = inhibition, actives largely listed as inhibitors; AID 540256; Lassa virus pseudotype entry inhibition, cell reporter; control for the full effect not named in the record; hit rate 1.2% among 300,000; active means well fitted inhibition curve with a large enough effect; inconclusive means small, poorly fitted or top-dose-only effect, or effect the other way; inactive means flat fitted curve, though single readings scatter; tested in HEK293 cells; note: % is set by controls: 0 for no effect and ±100 for the full control effect; nearly all actives have a fitted effect of over 50% in size; luciferase read-out
StopGo reporter: FMDV 2A StopGo reporter, luciferase signal; hit rate 1.2% among 410,000; Potency, µM (series often up to 57.9 µM), for the others: at the top dose signal change, negative = less light; human cells with a luciferase reporter of 2A StopGo recoding; control for the full effect not named in the record; AID 1159524; active = well fitted falling curve with a large enough effect; inconclusive = small, poorly fitted or top-dose-only effect; inactive = no such curve, though single readings can be large or run the other way; tested in HEK293T cells; note: % is set by controls: 0 for no effect and ±100 for the full control effect; nearly all actives have a fitted effect of over 45% in size; luciferase light after 4 h
NS1 function inh: blocks influenza NS1 protein function. S. cerevisiae slowed by influenza A NS1, growth recovery by OD600. Potency, µM (highest dose often 46.1 µM), for the others: at the top dose activity, positive = more growth. hit rate 0.4% among 270,000; note: actives are rising curves; nearly all actives have a fitted effect of over 50% in size
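OD600 was taken as the measure of yeast growth restored by compound in an NS1-expressing S. cerevisiae strain. Cells had been washed out of glucose medium and diluted 1:100 into galactose -URA medium, pH 6.0.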
Cruzain Triton: cruzain (T. cruzi) inhibition with detergent; purified cruzain, Z-FR-AMC fluorescence, 0.01% Triton; Potency, µM, for inactives: max response, negative = inhibition, usual class: inhibitors; hit rate 0.43% among 200,000; active = well fitted curve in the direction sought with a large enough effect; inconclusive = small, poorly fitted or top-dose-only effect, or another doubt; inactive = no such curve, though single readings can be large; an effect the other way counts as inactive or inconclusive;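 note: plate controls were neutral wells for no effect and buffer without enzyme for full effect; nearly all actives have a fitted effect of over 40% in size; top concentration of the series not given in the record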
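Sodium acetate buffer (100 mM, pH 5.5) containing 5 mM DTT and 0.01% Triton X-100 hosted 1.5 nM cruzain and test compound for 15 min at room temperature. Cleavage of 2 uM Z-FR-AMC was then tracked by fluorescence.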
* marks the source's active call; other numbers are inactive results; ? = inconclusive; nt = not tested or not shown; & = joins results of further samples; [ ] = remark or other dose. Unless noted, calls come from the whole dose curve; as a rule, active means well fitted rising curve with a large enough effect; inconclusive means small, poorly fitted or top-dose-only effect; inactive means no such curve, though single readings can be large or run the other way. Potency is the fitted concentration of half-maximal effect. Rows are unselected. Share with any hit: about 4.5%.

SMILES	RE007 growth inh	SARS PLP yeast	Cruzain noTriton	MARV entry inh	Lassa entry inh	StopGo reporter	NS1 function inh	Cruzain Triton
Cc1ccc(SCC(=O)OCC(=O)N(CC(C)C)c2c(N)n(Cc3ccccc3)c(=O)[nH]c2=O)c(C)c1	-5%	1%	nt	?	?	-23%	nt	nt
O=C(NC1CCN(Cc2ccccc2Cl)CC1)c1ccccc1	1%	0%	nt	nt	nt	-13%	4%	nt
O=C1N=C(N2CCN(c3ccccc3)CC2)SC1Cc1ccccc1 (configuration not stated)	-3%	-14%	-7%	-16%	0%	-16%	-7%	-26%
COc1ccc(C)cc1S(=O)(=O)N1CCN(c2ccccc2)CC1	-18%	-7%	nt	?	5%[46.1 µM]	27%	-18%	nt
Cc1ccc2nsnc2c1S(=O)(=O)NC1CC1	3%	9%	0%	-3%	5%	nt	4%	-1.0%
CCOc1ccc(Cl)cc1CNCCCSc1nnnn1C	nt	nt	0%	-22%[46.1 µM]	-9%[46.1 µM]	-5%	nt	0.6%
COc1cccc(NC(=O)/C=C/c2ccccc2[N+](=O)[O-])c1	-13%	-48%	18%	-23%	?	26%	-41%	-9.1%
Cc1cccc2c1CCCC2=O	5%	nt	nt	?	-6%[46.1 µM]	-7%	nt	nt
CCOc1ccc(C(C)C)cc1S(=O)(=O)n1ccnc1C	28%	2%	nt	-13%[46.1 µM]	-10%[46.1 µM]	9%	-38%	nt
CC(C)(C)c1ccc(C(=O)Nc2ccc(C(=O)N3CCOCC3)cc2)cc1	-21%	2%	nt	-2%	-16%	?	-3%	nt
CC(C)(C)CC(C)(C)SSc1n[nH]c(=S)s1	15%	nt	nt	3%[46.1 µM]	30%[46.1 µM]	-1%	nt	nt
Cc1cccc(NC(=O)CN(C)C(=O)/C=C/c2ccccc2)c1C	12%	-1%	nt	-4%	-27%	-7%	nt	nt
Cc1ccc(-c2ccc(=O)n(CC(=O)NCCc3ccccc3)n2)cc1	nt	nt	1%	nt	24%[46.1 µM]	10%	nt	1.7%
Cn1nnnc1SCCCNCc1ccccc1OCc1ccc(Cl)cc1	nt	nt	-4%	?	-4%[46.1 µM]	0%	nt	-1.5%
Cc1ccc(CC(=O)NCCc2ccc(S(N)(=O)=O)cc2)cc1	4%	8%	nt	nt	nt	0%	7%	nt
NC(=O)C1(N2CCCCC2)CCN(C(=S)Nc2ccc(Cl)cc2)CC1	-14%	1%	-4%	12%	-23%	2%	12%	1.6%
COc1ccc(/C=C/C(=O)OCC(=O)Nc2ccc(N3CCOCC3)cc2)cc1	-7%	1%	nt	1%	3%	-16%	-1%	nt
COc1ccc(NC(=O)C(c2ccccc2)c2ccccc2)cn1	6%	0%	nt	-2%[46.1 µM]	-6%[46.1 µM]	-5%	-13%	nt
Fc1ccc(Br)cc1C1C=C(c2ccc(Br)cc2)Nc2ncnn21 (configuration not stated)	-2%	-5%	?	20%	-26%	-15%	-1%	-1.3%
COC(=O)c1ccc(Nc2nc(-c3ccc(C)cc3)nc3ccccc23)cc1	nt	nt	?	12%[46.1 µM]	24%[46.1 µM]	12%	nt	-3.6%
CN(C)CCCNS(=O)(=O)c1ccc(NC2CCCCCC2)c([N+](=O)[O-])c1	-6%	-1%	nt	?	-2%[46.1 µM]	-26%	0%	nt
CCOc1cccc2cc(-c3nnc(Nc4ccc(F)c(Cl)c4)s3)c(=O)oc12	nt	nt	3%	nt	2%[46.1 µM]	6%	nt	1.7%
COc1ccccc1OCC(=O)N1CC2(C)CC1CC(C)(C)C2 (configuration not stated)	-2%	9%	4%	6%	-2%	-10%	-7%	-1.3%
O=C(CN(Cc1ccc(F)cc1)C(=O)CCC(=O)Nc1ccccn1)NCc1ccc(F)cc1	0%	2%	nt	-14%[46.1 µM]	-4%[46.1 µM]	15%	-10%	nt
COc1cc(/C=C/C(C)=NNc2ccccc2)ccc1O	4%	nt	nt	?	-27%[46.1 µM]	3%	nt	nt

Carrying on:
SMILES	RE007 growth inh	SARS PLP yeast	Cruzain noTriton	MARV entry inh	Lassa entry inh	StopGo reporter	NS1 function inh	Cruzain Triton
CCN(CC)CCn1c(OC)cc(=O)[nH]c1=O	7%	1%	1%	9%	28%	-17%	8%	6.2%
COc1ccccc1C(CNC(=O)c1ccc(S(=O)(=O)NCc2ccco2)cc1)N(C)C (configuration not stated)	-10%	-7%	-4%	5%	?	-5%	3%	0.8%
CCN(C(=O)c1c(C)oc2ncn(CC(C)C)c(=O)c12)c1cccc(Cl)c1	nt	nt	8%	nt	14%[46.1 µM]	7%	nt	0.4%
COc1ccccc1NC(=O)Cn1c(C)nc2c(sc(=S)n2Cc2ccco2)c1=O	-3%	11%	nt	nt	nt	-27%	19%	nt
COc1ccccc1CNC(=O)Cc1ccc(OC)c(OC)c1	-1%	-4%	nt	15%[46.1 µM]	-19%[46.1 µM]	0%	10%	nt
CCOc1ccccc1NC(=O)CCCc1nc(-c2ccccc2Cl)no1	nt	nt	-10%	-21%[46.1 µM]	-10%[46.1 µM]	-13%	nt	-4.8%
COc1ccc(C(C(=O)NC2CCCC2)N(Cc2ccc(F)cc2)C(=O)c2ccn[nH]2)cc1OC (configuration not stated)	5%	1%	-2%	-11%	-20%	nt	-17%	1.7%
Cc1nc2cc(NC(=O)N3CCN(c4ccccn4)CC3)ccc2o1	-5%	nt	3%	0%	2%	24%	-5%	7.8%
FC(F)(F)c1nnc(N2CCN(c3ccc(Cl)cc3)CC2)s1	-9%	-2%	nt	nt	nt	-2%	4%	nt
Cc1nnc(SCC(=O)Nc2cc(C(F)(F)F)ccc2N2CCOCC2)o1	14%	0%	-3%	7%&7%	1%	-12%	-3%	1.5%
CCN(CC)C(=O)C1CCCN(C/C(C)=C/c2ccccc2)C1 (configuration not stated)	-22%	11%	1%	-26%	-2%	7%	-8%	4.5%
CCN(c1ccc(NC(=O)COC(=O)CCc2nc3ccccc3n2-c2ccccc2)cc1)C(C)C	-8%	-16%	0%	-2%	-16%	?	-11%	-5.2%
CCOc1cc(C)c(Cl)cc1S(=O)(=O)NCc1ccc2c(c1)OCO2	17%	-6%	-5%	?	?	19%	-59%	-4.7%
O=C(NNC(=S)NC1CC2C=CC1C2)c1ccncc1 (configuration not stated)	-4%	1%	nt	16%[46.1 µM]	0%	17%	5%	nt
CN(CC(=O)Nc1ccccc1Br)c1ncnc2sccc12	20%	-7%	nt	-8%[46.1 µM]	-29%	?	nt	nt
NNC(=O)c1cc2c(s1)-c1cc(Cl)ccc1SC2	-1%	-1%	nt	2%[46.1 µM]	?	23%	?	nt
CC(C)(C)OC(=O)N1CCCC1C(=O)NC(Cc1ccccc1)C(=O)O (configuration not stated)	16%	0%	9%	-8%	11%	2%	?	-7.0%
Cc1ccc(C2C(C#N)=C(N)SC(N)=C2C#N)c(C)c1	-21%	12%	-9%	4%	10%	-15%	?	-14%
O=P(OCC(F)(F)C(F)F)(N1CCOCC1)N1CCOCC1	8%	1%	-4%	13%[46.1 µM]	3%	2%	-1%	-1.3%
CCOc1ccc(OCCOCCNCCOC)cc1	21%	-6%	-4%	12%	4%	4%	5%	-1.4%
CC(=O)N1CCSc2ccc(S(=O)(=O)N3CCC(C)CC3)cc21	-1%	3%	nt	nt	nt	-11%	4%	nt
O=c1c2cn[nH]c2nc(SCc2ccc3c(c2)OCCO3)n1-c1ccccc1	13%	-4%	-30%	?	?	25µM*	2%	-2.9%
Nc1ccc2nc(NC(=O)C3CCCCC3)sc2c1	-11%	-1%	nt	?	0%[46.1 µM]	33%[activator]	-1%	nt
CCOC(=O)c1c(C)[nH]c(C(=O)C(Cc2ccccc2)N(C)C)c1C (configuration not stated)	17%	4%	13%	?	22%	14%	13%	-5.6%
COc1ccc(C(=O)c2c(C)c3ccccc3n2CC(O)CNC(C)C)cc1 (configuration not stated)	9%	0%	-9%	?	?	?	-9%	-3.5%

Next section
SMILES	RE007 growth inh	SARS PLP yeast	Cruzain noTriton	MARV entry inh	Lassa entry inh	StopGo reporter	NS1 function inh	Cruzain Triton
CCCCn1c(N)c(N(CCOC)C(=O)c2ccc3c(c2)C(=O)N(c2cc(C)ccc2C)C3=O)c(=O)[nH]c1=O	-10%	0%	nt	-2%[46.1 µM]	20%[46.1 µM]	-13%	4%	nt
COc1ccc2nc3ccccc3nc2c1NC(=O)c1ccc(Cl)cc1Cl	-24%	-1%	-4%	1%	10%	-21%	8%	-2.2%
Cc1cc(N2CCCCC2)c(F)cc1[N+](=O)[O-]	-14%	8%	-7%	20%	12%	3%	-4%	2.4%
COC(=O)C(C)Sc1n[nH]c(=S)s1 (configuration not stated)	-9%	4%	2%	6%	-4%	-21%	3%	-1.5%
CCOc1ccc(NC(=O)CCc2c(C)nc3c4c(C)cc(C)nc4nn3c2C)cc1	nt	nt	21%	-1%[46.1 µM]	?	-12%	nt	0.5%
COc1cc(NC(=O)c2csc(-c3ccncc3)n2)cc(C(=O)Nc2cccc(C(F)(F)F)c2)c1	1%&-1%	-9%	nt	nt	nt	-27%&-19%	8%	nt
COc1ccc(C(=O)Oc2cccnc2)cc1	-12%	2%	-2%	-6%	17%	25%	-12%	1.7%
Cc1nc(NC(C)C)c2oc3ccccc3c2n1	-12%	-4%	-2%	-5%	0%	?	-7%	-5.7%
CC(C)N1CC(C(=O)Nc2ccc(C#N)cc2)CC1=O (configuration not stated)	-13%	2%	nt	nt	nt	-11%	3%	nt
CC(C)C(=O)c1cn(CC(=O)NCc2ccco2)c2ccccc12	3%	-13%	1%	0%	7%	45%[activator]	1%	-0.2%
O=C(CNC(=S)N(Cc1ccccc1)Cc1cccnc1)NCCc1ccccc1	-4%	17%	15%	18%	8%	19%	-4%	0.0%
CC(=O)c1c(C)[nH]c(C(=O)CN2C(=O)NC(C)(C)C2=O)c1C	0%	-3%	nt	16%	18%	-7%	nt	nt
COCCn1c(COc2cccc(OC)c2)nnc1SCC(=O)NC1CCCC1	-1%	0%	nt	4%[46.1 µM]	nt	15%	3%	nt
CCSc1nnc2c(n1)OC=Nc1ccc(Br)cc1-2	-4%	-1%	-16%	8%	2%	-6%	-39%	-6.1%
